MITF inh: inhibitors of MITF, primary screen, MITF inhibitor project, cell-based, luminescence; inhibition, % (test concentration not listed); 0.28% of 37,000 active; TRPM1 promoter luciferase, 24 h; AID 2240, 2010;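 active = most replicates at 85% or more, or half of them and the mean; inconclusive = half reach 85% but not the mean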;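 note: human melanocyte line stably carrying TRPM1 promoter luciferase reporter; 0% = vehicle wells and 100% = a positive control; the first replicate is given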
PD-1 reversal: activators reversing PD-1 mediated T-cell inhibition, primary screen, luminescence, primary human CD4 T cells, PD-L1 beads; CellTiter-Glo 96 h; activation, % (concentration not given with the values); AID 2316, 2010; 29,000 tested, under 10 active;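 active = replicate mean of 50% or more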;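 note: 0% = median vehicle wells and 100% = positive control; 100 nL library stock added to about 50 µL; numbers are from one replicate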
Hedgehog inh: Hedgehog pathway signaling inhibitors, primary screen, luminescence, Shh-LIGHT2 cells, Gli-luciferase; Shh-LIGHT2 Gli-luciferase reporter, 30 h; 2.1% of 22,000 active; inhibition, % (no concentration beside the values);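 active = replicate mean of 65% or more; inconclusive = mean lower but half the replicates past it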;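 note: pathway switched on by Shh-conditioned medium diluted 1 in 25 in low serum; 100 nL library stock added to about 40 µL; 0% = median of neutral wells and 100% = positive control level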
YB-1 expr inh: inhibitors of YB-1 gene expression, primary screen, cell-based, fluorescence. U2OS, qRT-PCR YB-1 vs CDIP delta delta Cp, 16 h; active compounds read high; zero = DMSO, each unit about twofold. delta delta Cp (YB-1 minus CDIP) (concentration not given with the values). 0.37% of 30,000 active. AID 434959, 2010;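 active = delta delta Cp rounded down to an integer at or above 3, about 3 SD of DMSO wells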;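 note: higher means less YB-1 transcript or more CDIP transcript relative to DMSO; stock transfer was 100 nL into about 100 µL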
* hit, by the source's call; ? = inconclusive; · = not tested or not shown. This is a subset, so the mix of outcomes need not match the whole.

canonical_smiles	MITF inh	PD-1 reversal	Hedgehog inh	YB-1 expr inh
C[C@@H]1CCCCO[C@@H](CN(C)C)[C@@H](C)CN([C@H](C)CO)C(=O)c2cc(NC(=O)c3ccccc3)ccc2O1	0	·	-4	0.045
CC(C)NC(=O)N(C)C[C@@H]1Oc2ccc(NC(=O)C3CCCCC3)cc2CC(=O)N([C@H](C)CO)C[C@@H]1C	2	-0.6	-27	0.032
CNC[C@H]1Oc2c(NS(=O)(=O)c3ccccc3)cccc2C(=O)N([C@@H](C)CO)C[C@H]1C	-6	0.5	16	-0.8
Cc1noc(C)c1NC(=O)N(C)C[C@H]1Oc2c(NC(=O)c3ccc(-c4nccs4)cc3)cccc2C(=O)N([C@@H](C)CO)C[C@H]1C	-5	0.5	15	-0.33
Cc1cccc(NC(=O)CN(c2ccc(Oc3ccccc3)cc2)S(C)(=O)=O)c1C	0	-0.2	·	·
CCOc1ccc(C(=O)NCc2nc(-c3ccccc3)no2)cc1	4	1.0	·	·
Cc1cc(C)nc(SCc2nnnn2-c2ccccc2)n1	-7	0.0	·	·
CCC(=O)c1ccccc1OCCCN1C(=O)NC(C)(C)C1=O	4	0.3	·	·
C[C@@H]1CN([C@@H](C)CO)C(=O)c2cc(N(C)C)ccc2O[C@@H]1CN(C)S(=O)(=O)c1ccccc1	-11	0.8	-1	0.38
Cc1ccc(F)cc1NC(=O)CSc1nc2ccccc2s1	9	0.8	·	·

canonical_smiles	MITF inh	PD-1 reversal	Hedgehog inh	YB-1 expr inh
COc1ccc(NC(=O)Nc2cccc3c2O[C@H](CN(C)C(=O)NC(C)C)[C@@H](C)CN([C@H](C)CO)C3=O)cc1	-11	2.5	26	-1.1
O=C(O)CNS(=O)(=O)c1cc(Cl)c(Cl)cc1Cl	-12	0.3	·	·
C[C@H]1CN([C@@H](C)CO)C(=O)Cc2cc(NC(=O)C3CC3)ccc2O[C@@H]1CN(C)C(=O)Nc1ccc2c(c1)OCO2	0	-0.7	-1	-0.78
CC(C)NC(=O)Nc1ccc2c(c1)C(=O)N([C@@H](C)CO)C[C@@H](C)[C@@H](CN(C)S(C)(=O)=O)O2	8	0.5	2	0.15
Cc1noc(C)c1NC(=O)N(C)C[C@@H]1Oc2c(NC(=O)c3ccncc3)cccc2C(=O)N([C@@H](C)CO)C[C@H]1C	-2	2.3	-19	0.077
C[C@H]1CN([C@@H](C)CO)C(=O)c2cccc(NC(=O)c3ccncc3)c2O[C@@H]1CN(C)Cc1ccc2c(c1)OCO2	0	-1.2	8	0.069
COc1ccccc1NC(=O)Cn1nc(C)c([N+](=O)[O-])c1C	36	-0.8	·	·
C[C@@H]1CN([C@@H](C)CO)C(=O)c2cc(N(C)C)ccc2O[C@@H]1CN(C)Cc1ccc(C(F)(F)F)cc1	4	1.8	6	-0.71
C[C@H](CO)N1C[C@H](C)[C@H](CN(C)C(=O)NC2CCCCC2)Oc2ccc(NC(=O)CCN3CCOCC3)cc2CC1=O	-9	0.5	15	0.5
C[C@@H]1CN([C@H](C)CO)C(=O)Cc2cc(NS(=O)(=O)c3ccccc3)ccc2O[C@H]1CN(C)C(=O)Nc1ccc2c(c1)OCO2	-6	·	·	-0.43

canonical_smiles	MITF inh	PD-1 reversal	Hedgehog inh	YB-1 expr inh
CC(=O)Nc1ccc(NC(=O)CN(c2ccc(C)cc2C)S(C)(=O)=O)cc1	-9	0.5	·	·
CN(C)S(=O)(=O)c1ccc(NC(=O)CCC(=O)O)cc1	-25	3.4	·	·
O=c1n(CCCN2CCN(c3cccc(Cl)c3)CC2)nc2ccccn12	5	·	7	-0.52
CN(C)CCNc1cn[nH]c(=O)c1Cl	-6	0.6	-37	-0.11
COc1ccc2ncnc(NCc3ccc4c(c3)OCO4)c2c1	-5	-0.7	-18	2.6
COc1ccc(S(=O)(=O)N(C)C[C@H]2Oc3c(NC(=O)C4CC4)cccc3C(=O)N([C@H](C)CO)C[C@H]2C)cc1	-2	2.3	-58	-0.11
C[C@@H]1CN([C@H](C)CO)C(=O)c2cc(NS(=O)(=O)c3cccs3)ccc2O[C@@H]1CN(C)Cc1ccncc1	-2	·	-18	-0.029
CCc1cccc(C)c1NC(=O)CSc1nc2cc(C)cc(-n3nc4ccccc4n3)c2o1	-15	-0.2	·	·
CCn1c(SCC(=O)Nc2ccc3c(c2)OCCO3)nnc1-c1ccccc1	-10	0.6	·	·
C[C@H]1CN([C@@H](C)CO)C(=O)Cc2cc(NC(=O)Nc3cccc4ccccc34)ccc2O[C@H]1CN(C)S(=O)(=O)c1ccc(Cl)cc1	34	0.8	·	2.5

canonical_smiles	MITF inh	PD-1 reversal	Hedgehog inh	YB-1 expr inh
CC(C)NC(=O)Nc1ccc2c(c1)C(=O)N([C@@H](C)CO)C[C@H](C)[C@@H](CN(C)C(=O)Nc1ccc3c(c1)OCO3)O2	-5	0.6	-22	-0.36
C[C@@H]1CN([C@@H](C)CO)C(=O)Cc2cc(NS(=O)(=O)c3ccc(F)cc3)ccc2O[C@@H]1CN(C)C(=O)Nc1ccc(F)cc1	-11	·	·	0.063
C[C@H](CO)N1C[C@H](C)[C@H](CN(C)C(=O)Nc2ccc(F)cc2)Oc2ccc(NC(=O)Nc3ccc(F)cc3)cc2C1=O	-23	-3.9	107*	-0.28
O=C(COc1ccc(Cl)cc1Br)Nc1ccccc1C(=O)Nc1ccccc1	2	-1.9	·	·
C[C@H]1CN([C@@H](C)CO)C(=O)c2cc(NC(=O)CCCCCC(=O)Nc3ccccc3N)ccc2O[C@H]1CN(C)Cc1ccc2c(c1)OCO2	1	2.1	·	0.36
COC(=O)CCN(C(=O)c1ccc(C)c([N+](=O)[O-])c1)c1ccccn1	-7	-0.6	·	·
C[C@@H]1CN([C@@H](C)CO)C(=O)Cc2cc(NC(=O)CCCCCC(=O)Nc3ccccc3N)ccc2O[C@@H]1CN(C)S(=O)(=O)c1cccs1	-18	-1.3	·	-0.19
N#Cc1cc(C#N)c(SCC(=O)NC2CCCCC2)nc1N	26	-0.4	-2	-0.034
C[C@H](CO)N1C[C@H](C)[C@H](CN(C)Cc2ccc(Oc3ccccc3)cc2)Oc2ccc(NC(=O)c3ccncc3)cc2C1=O	2	-1.1	-4	0.2
Cn1nnnc1SCC(=O)Nc1ccc(Oc2ccccc2)cc1	-35	1.5	·	·

canonical_smiles	MITF inh	PD-1 reversal	Hedgehog inh	YB-1 expr inh
C[C@@H]1CN([C@H](C)CO)C(=O)c2cc(N(C)C)ccc2O[C@@H]1CN(C)Cc1ccc(-c2ccccc2)cc1	-9	0.2	1	0.26
CC(C)NS(=O)(=O)c1ccc(OCC(=O)O)c(Cl)c1	-23	0.3	·	·
Cc1noc(C)c1NC(=O)N(C)C[C@H]1Oc2ccc(NC(=O)CCCCCC(=O)Nc3ccccc3N)cc2C(=O)N([C@@H](C)CO)C[C@@H]1C	-3	0.7	·	-0.063
COc1ccc(NC(=O)Nc2cccc3c2O[C@H](CN(C)Cc2ccc(C(=O)Nc4ccccc4N)cc2)[C@@H](C)CN([C@H](C)CO)C3=O)cc1	-11	-3.8	·	-0.68
C[C@H](CO)N1C[C@H](C)[C@@H](CN(C)C(=O)Nc2cccc3ccccc23)Oc2c(NC(=O)c3nc4ccccc4s3)cccc2C1=O	8	-3.8	46	-0.23
C[C@H](CO)N1C[C@H](C)[C@H](CN(C)Cc2ccc(C(=O)O)cc2)Oc2ccc(NC(=O)Cc3ccccc3)cc2CC1=O	-11	·	-14	-0.12
Cc1noc(C)c1NC(=O)N(C)C[C@@H]1Oc2ccc(NC(=O)Cc3ccccc3)cc2CC(=O)N([C@H](C)CO)C[C@H]1C	3	·	-13	0.017
Cc1noc(C)c1NC(=O)Nc1ccc2c(c1)C(=O)N([C@H](C)CO)C[C@H](C)[C@@H](CN(C)Cc1ccc3c(c1)OCO3)O2	1	0.3	-15	-0.14
COCc1cc(C)nc2sc(C(N)=O)c(N)c12	-16	0.5	-93	-0.52
COc1cccc2cc(C(=O)C3C(=O)C(=O)N(CCCN4CCOCC4)C3c3cccnc3)oc12 (centres undefined)	5	0.5	·	·

canonical_smiles	MITF inh	PD-1 reversal	Hedgehog inh	YB-1 expr inh
C[C@@H]1CN([C@@H](C)CO)C(=O)Cc2cc(NC(=O)CCCCCC(=O)Nc3ccccc3N)ccc2O[C@@H]1CN(C)S(C)(=O)=O	-9	0.5	·	-0.02
C[C@@H]1CN([C@H](C)CO)C(=O)Cc2cc(NS(=O)(=O)c3ccc(F)cc3)ccc2O[C@@H]1CN(C)C(=O)Nc1cccc2ccccc12	-11	-0.2	9	0.008
COc1ccc(S(=O)(=O)Nc2ccc3c(c2)C(=O)N([C@@H](C)CO)C[C@H](C)[C@H](CN(C)C(=O)Nc2ccccc2)O3)cc1	-8	0.2	·	0.57
C[C@@H]1CN([C@@H](C)CO)C(=O)c2cccc(NS(=O)(=O)c3cn(C)cn3)c2O[C@@H]1CN(C)S(C)(=O)=O	-2	1.4	-12	0.29
CCOC(=O)c1c(NC(=O)c2ccc(Cn3cc(Br)cn3)o2)sc2c1CCCC2	0	0.6	·	·
COc1ccc(NC(=O)Nc2ccc3c(c2)CC(=O)N([C@H](C)CO)C[C@@H](C)[C@@H](CN(C)S(=O)(=O)c2ccc(OC)cc2)O3)cc1	12	·	13	0.27
Cc1cc(SCC(N)=O)nc2ccccc12	-30	1.2	·	·
CNC[C@@H]1Oc2ccc(NC(=O)Nc3ccc(OC)cc3)cc2CC(=O)N([C@H](C)CO)C[C@@H]1C	-11	1.6	20	0.29
COc1ccc(CN(C)C[C@H]2Oc3ccc(NS(=O)(=O)c4c(C)noc4C)cc3C(=O)N([C@@H](C)CO)C[C@@H]2C)cc1	-3	0.8	-18	-0.3
COc1ccc(NC(=O)CSc2nnnn2C)cc1Cl	-29	-3.2	·	·

canonical_smiles	MITF inh	PD-1 reversal	Hedgehog inh	YB-1 expr inh
CC(=O)O[C@]1(C(C)=O)CC[C@H]2[C@@H]3C=C(C)C4=CC(=O)CC[C@@H]4[C@H]3CC[C@@]21C	5	·	-20	0.075
N#Cc1c(C(F)(F)F)cc(-c2cccs2)nc1SCC(=O)Nc1sc2c(c1C#N)CCC2	56	-2.4	·	·
C[C@@H]1CN([C@H](C)CO)C(=O)Cc2cc(NC(=O)Nc3cccc4ccccc34)ccc2O[C@@H]1CN(C)C(=O)Nc1ccc(F)cc1	13	·	-5	0.37
CNC[C@@H]1Oc2ccc(NC(=O)CCC(F)(F)F)cc2C(=O)N([C@@H](C)CO)C[C@H]1C	-5	1.5	·	0.44
CSc1c(C#N)c(-c2ccccc2)nn1CC(=O)NN	-8	0.0	-17	0.22
COc1ccc(NC(=O)N(C)C[C@@H]2Oc3ccc(NC(=O)NC(C)C)cc3C(=O)N([C@@H](C)CO)C[C@H]2C)cc1	0	·	-65	-0.1
C[C@H](CO)N1C[C@H](C)[C@@H](CN(C)Cc2ccccc2)Oc2ccc(NC(=O)CCCCCC(=O)Nc3ccccc3N)cc2C1=O	-15	1.0	·	0.3
C[C@H]1CN([C@@H](C)CO)C(=O)c2cc(NS(=O)(=O)c3cn(C)cn3)ccc2O[C@H]1CN(C)C(=O)Nc1ccc(C(F)(F)F)cc1	7	0.4	-31	0.17
COC(=O)c1c(NC(=O)CSc2nnc3ccccn23)sc(C)c1C	3	-2.0	·	·
Cc1ccc(S(=O)(=O)N(C)C[C@@H]2Oc3ccc(NC(=O)NC(C)C)cc3C(=O)N([C@@H](C)CO)C[C@@H]2C)cc1	-12	-0.9	11	-0.029

5 structures out of the list, sorted by molecular weight, smallest number first:
canonical_smiles	MITF inh	PD-1 reversal	Hedgehog inh	YB-1 expr inh
CSc1c(C#N)c(-c2ccccc2)nn1CC(=O)NN	-8	0.0	-17	0.22
N#Cc1c(C(F)(F)F)cc(-c2cccs2)nc1SCC(=O)Nc1sc2c(c1C#N)CCC2	56	-2.4	·	·
COc1ccc(NC(=O)N(C)C[C@@H]2Oc3ccc(NC(=O)NC(C)C)cc3C(=O)N([C@@H](C)CO)C[C@H]2C)cc1	0	·	-65	-0.1
Cc1ccc(S(=O)(=O)N(C)C[C@@H]2Oc3ccc(NC(=O)NC(C)C)cc3C(=O)N([C@@H](C)CO)C[C@@H]2C)cc1	-12	-0.9	11	-0.029
C[C@H](CO)N1C[C@H](C)[C@@H](CN(C)Cc2ccccc2)Oc2ccc(NC(=O)CCCCCC(=O)Nc3ccccc3N)cc2C1=O	-15	1.0	·	0.3

Other results
canonical_smiles	MITF inh	PD-1 reversal	Hedgehog inh	YB-1 expr inh
CC(=O)Nc1ccc(Br)cc1-c1nc2ccccc2nc1OCc1cccc(Cl)c1	-12	-1.0	·	·
C[C@@H]1CN([C@H](C)CO)C(=O)c2cc(NC(=O)Nc3ccc(F)cc3)ccc2O[C@H]1CN(C)S(=O)(=O)c1cccs1	-49	-2.4	-5	-0.21
CS(=O)(=O)NCCSCc1ccco1	-8	-1.9	·	·
COc1ccc(S(=O)(=O)Nc2cccc3c2O[C@@H](CN(C)Cc2ccc(C(F)(F)F)cc2)[C@H](C)CN([C@@H](C)CO)C3=O)cc1	0	·	-7	-0.25
Cn1cc(C2=C(c3cn(CCCSC(=N)N)c4ccccc34)C(=O)NC2=O)c2ccccc21	68	-9.3	44	0.53
Clc1ccc(C(Cn2ccnc2)OCc2c(Cl)cccc2Cl)c(Cl)c1 (centres undefined)	12	3.8	?	0.11

High-throughput results from PubChem BioAssay.
